HPGD block: qHTS Assay for Inhibitors of HPGD (15-Hydroxyprostaglandin Dehydrogenase) | 15-hydroxyprostaglandin dehydrogenase [NAD(+)] (Homo sapiens), P15428 | purified HPGD, NADH fluorescence kinetic, PGE2 substrate | actives 4.3% (n = 150,000) | Potency, µM, for the others: at the top dose activity change, negative = inhibition, most hits filed as inhibitors | AID 894, 2007; active = well fitted inhibition curve with a large enough effect (not every such curve was filed as active); inconclusive = small, poorly fitted or top-dose-only effect, or another doubt; inactive = no such curve, though single readings can be large or run the other way;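 further: top concentration of the series not given in the record; plate controls included wells without enzyme; inactives centre near -10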
Target sequence (P15428 whole entry, looked up): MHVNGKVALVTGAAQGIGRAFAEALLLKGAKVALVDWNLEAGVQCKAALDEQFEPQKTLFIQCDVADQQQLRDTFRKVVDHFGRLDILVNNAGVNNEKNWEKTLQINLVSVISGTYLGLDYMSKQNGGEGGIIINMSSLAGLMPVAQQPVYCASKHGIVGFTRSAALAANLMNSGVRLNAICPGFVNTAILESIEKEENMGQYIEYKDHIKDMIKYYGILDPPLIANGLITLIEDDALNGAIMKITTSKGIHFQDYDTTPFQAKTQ
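NADH formation kinetics: reaction with 30 uM PGE2 and 1 mM NAD+ (final), 20 nM enzyme, Tris-HCl pH 8 with Tween 20, after 15 min compound preincubation at room temperature. Fluorescence change, last versus first of five reads.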
The depositor's hits bear a star; ? = inconclusive. On the % scale 0 is the no-effect control and ±100 the full control effect; potency means the concentration at half of the fitted maximal effect. These rows are one share of the data (hit frequency here may not be typical).

SMILES | HPGD block
C=C(C)COc1ccc(-c2[nH]ncc2-c2ccccc2)c(O)c1 | -30%
CC1(C)CC(=O)C2=C(C1)OC(N)=C(C#N)C2c1cccc(OC(=O)c2ccco2)c1 (stereo unspecified) | -24%
CCOC(=O)/C(=C\c1ccc([N+](=O)[O-])o1)NC(=O)c1ccccc1 | -8%
Clc1cccc(CSc2ncn(-c3ccccc3)n2)c1 | ?
CN(C)c1ccc(/C=N/N(Cc2ccccc2)c2ccccc2)cc1 | -12%
CCC(C)c1ccc(NC(=O)C/C(C)=N/NC(=O)c2cnccn2)cc1 (stereo unspecified) | -15%
O=C(N[C@@H](Cc1ccccc1)C(=O)NC1CCCCCC1)c1ccco1 | -17%
COc1cc(/C=N/S(=O)(=O)CCc2ccccc2)ccc1O | -12%
CC(C)(C)c1nc2ccccc2c2nnc(SCC(=O)Nc3nccs3)n12 | -16%
CCN(CC)S(=O)(=O)c1cccc(-c2nnc(SCCOc3ccccc3)o2)c1 | -8%
O=C1OCC(c2ccccc2)=C1c1ccc(S(=O)(=O)N2CCOCC2)s1 | ?
Cc1ccc(S(=O)(=O)Nc2ccncc2)c(C)c1N(C)S(=O)(=O)c1ccc(F)cc1 | 0%
N#Cc1nc(-c2ccco2)oc1NCCCN1CCOCC1 | ?
Cc1ccc(/C(C#N)=C\c2cn(C)c3ccccc23)cc1 | -5%
C[C@]12CCC(=O)C=C1[C@H](O)C[C@@H]1[C@@H]2[C@@H](O)C[C@@]2(C)[C@H]1CC[C@]2(O)C(=O)CO | -16%
CN1C(=O)c2cccc(NC(=O)CCc3ccccc3)c2C1=O | ?
COc1ccc(CNC(=O)c2nnn(Cc3ccc(OC)cc3)c2N)cc1 | -12%
O=c1nc2s/c(=C\c3ccco3)c(=O)n2nc1Cc1ccccc1 | -22%
CCOC(=O)Nc1ccc(C(=O)NCC2CCCO2)cc1 (stereo unspecified) | 16µM*
CC(=O)/C(=N\Nc1ccccc1)Sc1nncn1C | -11%
O=C(NCCC(c1ccccc1)c1ccccc1)c1ccc(Br)o1 | 14µM*
COc1ccc(Nc2nc(=O)[nH]nc2C)cc1 | -16%
COc1ccc(-c2cc(C(=O)NCCN3CCOCC3)c3ccccc3n2)cc1 | ?
Cc1ccc(NC(=S)N2CCOCC2)c(C)c1 | -15%
CSc1ccccc1NS(=O)(=O)c1ccccc1 | -8%
CN(Cc1ccccc1)C(=O)CN(C1CCCCC1)S(C)(=O)=O | -10%
Cc1cc(Cl)ccc1OCC(=O)Nc1nc(-c2cccs2)cs1 | -12%
Cc1nc2sc(C(c3cccs3)N3CCOCC3)c(O)n2n1 (stereo unspecified) | -4%
Cc1nn(C)c(C)c1S(=O)(=O)N1CCCC(C(=O)NCCc2ccc(Cl)cc2)C1 (stereo unspecified) | -6%
COc1ccc(C)cc1NC(=O)COCC(=O)O | -2%
CC(=O)Nc1ccc(NS(=O)(=O)Cc2ccccc2)cc1 | -8%
CC1CC2(C)Oc3ccccc3C3OCC1(CO)C(C)C32 (stereo unspecified) | -5%
Cc1ccccc1-n1c(=O)c2ccccc2n2c(=O)[nH]nc12 | -14%
O=C(CCS(=O)(=O)c1ccccc1)Nc1ccc(-c2nc3ccccc3s2)c(O)c1 | -8%
O=C(COc1ccc(-n2cnnn2)cc1)NC(=O)NCc1ccccc1 | -7%
O=C1Nc2cc(Cl)c(Cl)cc2N(O)N1c1cc(Cl)cc(Cl)c1 | -26%
Cc1ccc(C)c(OCC(=O)Nc2ccc3c(c2)OCO3)c1 | -18%
COc1ccc(N2CCN(C(c3cccs3)C(C)NS(=O)(=O)c3ccccc3)CC2)cc1 (stereo unspecified) | -5%
CCOC(=O)c1ccccc1NC(=O)CSc1nnc(COc2ccccc2C)n1C | -6%
COc1cccc(Cn2cnc3c(NS(=O)(=O)c4ccc(Cl)cc4Cl)c(C)c(C)cc32)c1 | -11%
O=C(Cn1cc(C(F)(F)F)ccc1=O)N/N=C/c1cccc(Cl)c1 | -9%
COc1ccc(/C=C/c2nc(N)nc(-c3ccccc3O)n2)cc1 | -13%
COCc1cc(=O)n2[nH]c(-c3ccc(C)cc3)cc2n1 | ?
O=c1c(C=Nc2ccc(Cl)cc2)c[nH]n1-c1cccc(Cl)n1 | -22%
CC1(C)NC(=O)N(CC(O)COc2cc3ccccc3cc2C(=O)N2CCCCC2)C1=O (stereo unspecified) | -11%
CCOc1ccc(NC(=O)CSc2nnc(-c3ccccn3)n2C)cc1 | -9%
O=C(Nc1ccccc1)N(Cc1ccc(Cl)cc1)CC(O)C(F)(F)F (stereo unspecified) | -10%
COc1ccc(Cc2nnc(NC(=O)c3ccco3)s2)cc1 | ?
Cc1ccc(-c2csc(N/N=C/c3ccco3)n2)cc1 | -9%
CCOc1cc2[nH]c(=S)n(CCN3CCC(C)CC3)c(=O)c2cc1OCC | -10%
Nc1nc(CSc2nnnn2-c2ccc(Cl)cc2)nc(N2CCOCC2)n1 | -6%
CC(=O)OC1CC2C(C)(C)C(O)C=C[C@@]2(C)C2CC[C@@]3(C)C(c4ccoc4)OC(=O)C4OC43[C@]12C (stereo partly specified) | -1%
COC(=O)CCCC1=CC2=C(c3ccccc3)C(=O)C(C)(OC(=O)C3CCCC3)C(=O)C2=CN1CC(C)C (stereo unspecified) | -4%
COc1ccc(-c2csc(NCc3ccco3)n2)cc1C | -11%
CN(C)c1ccc(-c2nnn(CC(=O)N3c4ccccc4CCc4ccccc43)n2)cc1 | ?
CCCCNC(=S)N/N=C/c1cc(C)ccc1C | -15%
Cc1ccccc1-c1cncnc1N1CCNCC1 | -2%
N=c1sccn1CC(=O)NCCc1ccc(Cl)cc1Cl | 1%
O=C(CN(C(=O)c1ccc(Cl)cc1)N1C(=O)C2CCCCC2C1=O)c1ccc(Cl)cc1 (stereo unspecified) | -1%
CC1CCCN(c2nc3ccccc3nc2C(C#N)C(=O)OC2CCCCC2)C1 (stereo unspecified) | -3%

Three entries already listed, arranged by their value in HPGD block, smallest number first.
SMILES | HPGD block
O=c1c(C=Nc2ccc(Cl)cc2)c[nH]n1-c1cccc(Cl)n1 | -22%
COc1ccc(/C=C/c2nc(N)nc(-c3ccccc3O)n2)cc1 | -13%
Cc1ccc(-c2csc(N/N=C/c3ccco3)n2)cc1 | -9%

Other entries:
SMILES | HPGD block
CCC(C)NC(=O)CSC1=Nc2ccccc2C2=NC(c3ccccc3)C(=O)N12 (stereo unspecified) | ?
O=C(Nc1ccc2c(c1)C(=O)N(CC1CCCO1)C2=O)c1ccc(Cl)c(Cl)c1 (stereo unspecified) | ?
Oc1ccccc1C1Nc2cccc3cccc(c23)N1 | ?
CCN(CC)C(=O)C1CCCN(Cc2ccccc2F)C1 (stereo unspecified) | -8%
Cc1nc(N)nc(C)c1Cc1ccccc1 | -8%
Cc1ccc(N(CC(=O)N2CCN(C3CCCCC3)CC2)S(=O)(=O)c2cccnc2)cc1 | -7%
CCCC1S/C(=N/N=C/c2ccc(C)cc2)N(Cc2ccc(OC)cc2)C1=O (stereo unspecified) | -21%
CC12C(=O)N(c3ccc(OC(=O)c4ccco4)cc3)C(=O)C1C1c3ccccc3C2c2ccccc21 (stereo unspecified) | -9%
CC[C@H](CC[C@H](C)[C@@H]1CC[C@@H]2[C@H]3CC=C4C[C@@H](O)CC[C@]4(C)[C@H]3CC[C@]21C)C(C)C | -4%
CCn1cc(C(=O)NC2CCCCCC2)c2cc(OC)c(OC)cc2c1=O | -18%
O=C(CSc1nnc2ccccn12)NC(=O)NC1CCCC1 | 3%
Cc1cc(-c2nnco2)c(C)n1-c1ccc(F)cc1 | -4%
O=C(O)c1cccc(N2C(=O)Nc3ccccc3N2O)c1 | -2%
CC(C)CNS(=O)(=O)c1cc(C(=O)N2CCOCC2)c(Cl)cc1Cl | -7%
O=[N+]([O-])c1cccc(/C(=N/N=C/c2ccccc2Br)C23CN4CN(CN(C4)C2)C3)c1 | -1%
CC(=O)Nc1ccc(NC(=O)CN2CCN(c3cccc(C(F)(F)F)c3)CC2)cc1 | -6%
O=C(CCn1nc(-c2ccccc2)ccc1=O)N1CCN(c2ccccn2)CC1 | -16%
Cc1ccc(-c2c(C)sc(=NC(=O)c3ccco3)n2C)cc1 | ?
COc1ccccc1-c1ccc(/C=C2/C=C(CC(C)C)OC2=O)o1 | ?
CN(c1nc2c(c(=O)n(C)c(=O)n2C)n1CC(=O)c1ccccc1)C1CCCCC1 | -8%

Records listed so far that bear a hit mark in HPGD block:
SMILES | HPGD block
CCOC(=O)Nc1ccc(C(=O)NCC2CCCO2)cc1 (stereo unspecified) | 16µM*
O=C(NCCC(c1ccccc1)c1ccccc1)c1ccc(Br)o1 | 14µM*

(continued)
SMILES | HPGD block
Cc1cc(C(=O)OC(C(=O)Nc2cccc(C(F)(F)F)c2)c2ccccc2)c(C)o1 (stereo unspecified) | -12%
COC(=O)Cn1cc(C#N)c2ccccc21 | -5%
C[C@@H]1O[C@H](O[C@@H]2[C@H](C)O[C@H](O[C@@H]3[C@H](C)O[C@H](O[C@H]4CC[C@]5(C)[C@@H](CC[C@@H]6[C@H]5C[C@@H](O)[C@]5(C)[C@@H](C7=CC(=O)OC7)CC[C@]65O)C4)C[C@@H]3O)C[C@@H]2O)C[C@H](O)[C@@H]1O | -4%
CCC1CCCCN1C(=O)c1c(-c2ccccc2)noc1C (stereo unspecified) | 1%
Cc1ccc2nc(NC(=S)NC(=O)c3cccs3)sc2c1 | -16%
CN(C(=O)c1ccccn1)c1nnc(-c2cccnc2)s1 | -13%
CC(C)(C)n1nnnc1C(c1cccnc1)N1CCN(C2CCCCC2)CC1 (stereo unspecified) | -4%
Cc1ccc(NC(=O)CNC(=O)c2cccs2)cc1S(=O)(=O)Nc1ccc(Cl)cc1 | -14%
CCCCN1C(=O)C2C(c3ccc(OC)cc3O)NC(CC(C)C)(C(=O)O)C2C1=O (stereo unspecified) | -9%
C/C(=N\NC(=O)COc1ccc(C(C)(C)C)cc1)c1ccc2c(c1)OCCO2 | -21%
CCOc1ccccc1NC(=O)CCS(=O)(=O)c1cccc2nonc12 | -2%
COC(=O)c1ccccc1NC(=O)N1CSC[C@H]1C(=O)OC | -14%
Cc1nc2sc(C(c3cccs3)N3CCC4(CC3)OCCO4)c(O)n2n1 (stereo unspecified) | -21%
CC(=O)Nc1cc(C(C)C)c(O)c(C(C)C)c1 | -5%
Cc1ccc([N+](=O)[O-])c(N)c1 | -4%
CC(C)CCNC(=O)c1ccc2c(c1)N(Cc1ccccc1)C(=O)CS2=O (stereo unspecified) | -2%
O=C(OCCO)c1ccccc1O | -11%
CN=C1S/C(=C\c2cc(C)n(-c3ccccc3F)c2C)C(=O)N1C | 22µM*
COC(=O)CCCCCCCCCC[N+]1(C)CCCCC1 | -4%
Cc1cccc(/C(N)=N/OC(=O)c2ccc(Br)o2)c1 | -16%

Random excerpt: three entries already listed, in no set order.
SMILES | HPGD block
COC(=O)Cn1cc(C#N)c2ccccc21 | -5%
Cc1ccc([N+](=O)[O-])c(N)c1 | -4%
COC(=O)c1ccccc1NC(=O)N1CSC[C@H]1C(=O)OC | -14%

Next section:
SMILES | HPGD block
CCOc1ccccc1O[C@@H](c1ccccc1)[C@@H]1CNCCO1 | -3%
Cc1ccc2[nH]c(=O)c(CN(Cc3ccco3)C(=O)c3cccs3)cc2c1 | -11%
O=C(CCSc1ccccc1)NCCSc1ccccn1 | ?
CCOC(=O)c1ccccc1NC(=O)COC(=O)c1ccc(C)c(S(=O)(=O)N2CCOCC2)c1 | -14%
CC(C(=O)NC1CCCC1)N(C(=O)CS(=O)CC(=O)Nc1ccc(F)cc1)c1ccc2c(c1)OCCO2 (stereo unspecified) | -10%
CCc1c(C)c2cc(Cl)c(O)c(CN(C)C)c2oc1=O | ?
COC(=O)C(NC(=O)c1ccco1)(Nc1nc(C)cs1)C(F)(F)F (stereo unspecified) | 1%
Cc1cccc(NC(=O)CSc2ccc(-c3ccco3)nn2)c1C | -16%
CCOC(=O)c1ccc(NC(=O)c2cn(-c3ccccc3)nc2-c2ccncc2)cc1 | ?
CCOc1ncccc1C(=O)NCC1COc2ccccc2O1 (stereo unspecified) | -16%
Cc1ccc(NNC(=O)C(=O)N2CCCCC2)cc1 | -2%
Cc1ccc(C(=O)NCCCNc2ccc(C(F)(F)F)cc2[N+](=O)[O-])cc1 | -12%
CCOC(=O)N1CCN(C(=O)CCS(=O)(=O)c2ccc(Br)s2)CC1 | -9%
CCCCC/C=C\C/C=C\CCCCCCCC(=O)NCCc1ccc(O)c(O)c1 | -2%
O=C(N/N=C/c1cccs1)c1cccc(NC(=O)c2ccc(Cl)cc2)c1 | -10%
Cc1c(C(=O)Nc2ccc(-c3nnc4n3CCCCC4)cc2)oc2ccc(Br)cc12 | ?
O=C(CCCC(=O)OCC(Cl)=C(Cl)Cl)Nc1ccccc1F | -7%
COc1ccc(N(CC(=O)Nc2cc(C)on2)S(=O)(=O)c2ccc(Cl)cc2)cc1 | -7%
CCOC(=O)c1ccc(NC(=O)CSc2nnc(NC(=O)c3ccc(S(=O)(=O)N4CCOCC4)cc3)s2)cc1 | -20%
Cc1cc(=O)[nH]c(SCC(=O)Nc2ccccc2C#N)c1C#N | -28%
CC1(C)CC(=O)c2sc(N3CCCCC3)nc2C1 | -14%
CC(C)(C)n1ncc2c(=O)n(CC(=O)NCc3ccccc3Cl)cnc21 | -3%

Among those listed so far, these contain a COOH group.
SMILES | HPGD block
COc1ccc(C)cc1NC(=O)COCC(=O)O | -2%
O=C(O)c1cccc(N2C(=O)Nc3ccccc3N2O)c1 | -2%
CCCCN1C(=O)C2C(c3ccc(OC)cc3O)NC(CC(C)C)(C(=O)O)C2C1=O (stereo unspecified) | -9%

Bioassay records deposited in PubChem by National Center for Advancing Translational Sciences (NCATS).
